AID504770 = growth inhibitors of E. coli YBA685 in a screen for V. cholerae RctB (chromosome II replication) inhibitors; E. coli YBA685 rctB-dependent plasmid, OD600 growth, 3 h; stronger effect = lower value; z-score (concentration not given with the values); 130,000 compounds, 0.27% hits;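 active means z-score under -2 on both plates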;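 further: wells of about 30 µL received 100 nL stock; score is relative to mean and SD of the test wells; the first replicate is given; strong numbers were not always called active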
CapD inh = CapD enzyme inhibition; purified CapD enzyme, fluorescence intensity read-out; stronger effect = lower value; some hits fall short of the stated cut; z-score (concentration not given with the values); 140,000 compounds, 0.23% hits; AID 492967;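 active means z-score under -4 in either of two replicates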;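 further: stock transfer was 100 nL into about 40 µL; score is relative to mean and spread of the plate; one replicate is shown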
Active calls of the source: *; . = not tested or not shown.

SMILES	AID504770	CapD inh
CN(C(=O)c1ccc(S(=O)(=O)N2CCCC2)cc1)C1CCCCC1	0.5	0.075
NNc1nc(-c2ccccc2)c2cc(Br)ccc2n1	0.4	.
Cc1c(NC(=O)CC(O)(C(F)(F)F)C(F)(F)F)c(=O)n(-c2ccccc2)n1C	-0.05	-0.12
CCOc1nc(C)c(CC(=O)O)c(OCC)n1	0.4	.
COC(=O)c1ccc(NC(=O)Nc2ccc(C)cc2)cc1	-0.9	0.095
Cc1nc2c(-c3ccc(Cl)cc3)cnn2c(N)c1-c1ccc(F)cc1	.	15
O=C1NCCCc2nc(Oc3ccccc3)sc21	-0.65	0.065
O=S(=O)(Nc1ccc2c(c1)OCO2)c1ccc2ccccc2c1	-0.55	.
Cc1ccc2c(=O)c(C(=O)c3cccc(Cl)c3)cn(CC(=O)NCC3CCCO3)c2n1 (stereo unspecified)	-0.45	-2.1
Cc1cc(-c2ccccc2)nc(Cl)c1S(=O)(=O)c1ccc(Cl)cc1	.	1.4
COc1cc(/C=C2\N=C(c3cc([N+](=O)[O-])ccc3Cl)OC2=O)ccc1OC(C)=O	.	-0.67
COc1ccc(C(=O)c2sc3nc(-c4cccs4)cc(-c4cccs4)c3c2N)cc1	1.4	-1.7
Cc1cccc(-c2nc(-c3ccc(N4CCN(c5ccc(C(F)(F)F)cn5)CC4)nc3)no2)c1	-0.05	0.92
CC(COC(=O)NNC(=O)C(C)n1nnc(N2CCOCC2)n1)c1ccccc1 (stereo unspecified)	.	-0.62
COc1cccc(NC(=O)CCCOc2cc(=O)n(C)c3ccccc23)c1	1.2	0.055
N#Cc1ccccc1NC(=O)CNC12CC3CC(CC(C3)C1)C2	-0.55	.
CN(CC(=O)N1CC=C(c2ccccc2)CC1)S(=O)(=O)c1cnc[nH]1	0.15	0.06
Cc1cc(C)cc(-n2c(CCC(=O)O)ccc2-c2cccs2)c1	-0.05	30
O=C1NC2(CCCCC2)N(C(=O)COc2ccc(Cl)cc2)C2=C1CCCC2	-0.35	.
Cc1cc2c(s1)CCc1cc(C(=O)O)sc1-2	-0.75	69
CSc1nc2c(c(-c3ccccc3)c1C#N)C(=O)CC(C)(C)C2	-0.7	-0.65
CS(=O)(=O)Nc1ccc(C(=O)Nc2ccccc2)cc1	-0.75	.
CN(C)c1ccc(/C=C2/N=C(c3ccccc3)OC2=O)cc1	-0.45	-0.57
O=C(Nc1ccccc1)N1CCN(S(=O)(=O)c2ccccc2)CC1	0.7	0.17
Cc1cc(SCC(=O)NC(=O)NCc2ccco2)nc2c(C)cccc12	1.2	.

The final 3 records of the part before lead into the next:
SMILES	AID504770	CapD inh
CN(C)c1ccc(/C=C2/N=C(c3ccccc3)OC2=O)cc1	-0.45	-0.57
O=C(Nc1ccccc1)N1CCN(S(=O)(=O)c2ccccc2)CC1	0.7	0.17
Cc1cc(SCC(=O)NC(=O)NCc2ccco2)nc2c(C)cccc12	1.2	.
CC(C)n1c(NN)nc2ccccc21	-0.35	0.02
O=c1[nH]c(SCc2ccccc2)ncc1S(=O)(=O)c1ccccc1	.	-0.04
N#CC(C(=O)N1CCCC1)C(=S)Nc1cccc(C(F)(F)F)c1 (stereo unspecified)	1	-1.6
CC(C)n1nccc1C(=O)O	-0.4	.
CN(CC(=O)NCc1ccccc1F)C(=O)c1ccco1	-0.85	-0.46
CC(C(=O)OCn1nnc2ccccc2c1=O)N1C(=O)c2ccccc2C1=O (stereo unspecified)	0.3	.
CN(CC(=O)O)S(=O)(=O)c1ccc(Oc2ccccc2)cc1	-1.2	-0.17
O=C(Cc1ccccc1)Nc1c(C(=O)N2CCCCC2)cnn1-c1ccccc1	-0.35	0.095
N#CC1=C(N)OC2=C(C(=O)CCC2)C1c1ccc(OC(=O)N2CCOCC2)cc1 (stereo unspecified)	.	-0.02
Brc1ccc2c(c1)c1ccccc1n2CN1CCCCC1	-0.1	0.88
CC1(C)CC(=O)c2c(oc3c(Br)cc(NS(=O)(=O)c4ccc5ccccc5c4)cc23)C1	.	0.05
Nc1nonc1-c1ccccc1	-0.8	14
N/C(=N\N=C1CCCCCC1)SCn1nnc2ccccc2c1=O	-0.15	.
O=C(/C=C/c1ccc(Br)o1)OCc1ccccc1	0.7	0.35
CC1(C)CSC(=NCc2ccccc2)N1C(=O)Cn1[nH]c(=O)c2ccccc2c1=O	0.3	.
O=C(OCn1nnc2ccccc2c1=O)C1COc2ccccc2O1 (stereo unspecified)	0.4	.
CCCc1c(-c2ccccc2)nc2sc3c(c2c1N)CCCCC3	1.9	-0.1
CSc1ccccc1NS(=O)(=O)c1cccs1	0.05	0.26
CC1(C)CC(=O)C2=C(C1)c1c(ccc3ccccc13)NC2c1cn(Cc2ccccc2)c2ccccc12 (stereo unspecified)	.	0.72
O=C(CSc1ccccn1)NCc1ccccc1	1	-0.54
COc1ccccc1-c1nnc(C2CCN(S(=O)(=O)c3ccc(Cl)s3)CC2)o1	1	0.47
COc1ccc(CC(=O)NCCc2cc3cc(C)c(C)cc3[nH]c2=O)cc1OC	-0.45	2.4
COc1ccc(C2(c3ccccc3F)C=Cc3c(ccc4cc5ccccc5cc34)O2)cc1 (stereo unspecified)	.	0.5
CCC1(C)Cc2ccccc2-c2nc3n(c(=O)c21)CCS3 (stereo unspecified)	.	0.61
Cc1ccc(NC(=O)CSc2nc3n(n2)C(=O)C(=O)N3)cc1	.	-0.75

Entries of single compounds, looked up by structure.
CC(C(=O)OCn1nnc2ccccc2c1=O)N1C(=O)c2ccccc2C1=O (stereo unspecified) is listed with AID504770: 0.3; CapD inh: .
CN(C(=O)c1ccc(S(=O)(=O)N2CCCC2)cc1)C1CCCCC1 is listed with AID504770: 0.5; CapD inh: 0.075

Additional structures.
SMILES	AID504770	CapD inh
CCN1CNC(=S)N(c2ccccc2)C1	-0.65	4.7
CN(Cc1ccco1)C(=O)C(Cc1ccccc1)NS(=O)(=O)c1ccc2c(c1)CCC(=O)N2 (stereo unspecified)	0.65	-0.15
Nc1cc(S(=O)(=O)C(F)(F)F)cc(S(=O)(=O)C(F)(F)F)c1	-0.3	.
Cc1ccc(S(=O)(=O)NC2=NCN(CCOC(=O)c3ccccc3)CN2)cc1	1.2	-0.43
COc1cc2ncnc(Nc3ccc(Cl)cc3Cl)c2cc1OC	.	3.4
Cc1cccc(N2CCN(c3cccc(C)c3)C2c2ccc(Cl)cc2)c1	.	-0.08
CC12C=CC3(CN(Cc4ccccc4)C(=O)C3C1C(=O)NCc1ccco1)O2 (stereo unspecified)	0	0.8
Cc1c(Br)c(Br)c(Br)c(Br)c1Br	.	-0.77
CCOC(=O)CC1=NN(c2ccccc2)C(=O)/C1=C\c1cc(OC)c(OC)cc1OC	0.3	6.7
Clc1ccc(/C=N/Nc2ncnc3c2[nH]c2ccccc23)c(Cl)c1	.	0.94
CC(=O)N1Cc2ccccc2C(C)CC12CCCCC2 (stereo unspecified)	2.3	-0.025
Cc1ccc(C2SCc3cc(C)c(C)cc3CS2)c(O)c1	.	-0.49
COc1ccccc1CNCC(O)(c1ccc(F)cc1)c1ccc(F)cc1	.	-0.77
CCOC(=O)c1ccc(N=Cc2ccccc2Oc2ccc(Cl)cc2)cc1	.	0.21
O=C(Nc1ccc(C(F)(F)F)cc1)c1cc(S(=O)(=O)NCC2COc3ccccc3O2)ccc1F (stereo unspecified)	.	-1
O=C(O)c1cccn2c(=O)c3c4c(sc3nc12)CCCC4	-0.6	-1.1
CCOc1ccc(N=Cc2ccc(N(C)CCC#N)cc2)cc1	0	-0.12
OCCOc1c(Cl)cc(Cl)c2cccnc12	0.3	2.4
O=C(COC(=O)Cc1ccccc1F)Nc1cccc(Br)c1	0.25	0.43
CC(C)CCn1c(SCC(N)=O)nc2c1c(=O)[nH]c(=O)n2C	.	-0.94
O=C(CCNc1ccc(Cc2ccncc2)cc1)c1ccc(Cl)cc1	-0.15	-0.38
COc1ccc(C)cc1NC(=O)c1cc(S(=O)(=O)N2CCN(c3cccc(Cl)c3)CC2)ccc1F	.	-0.95
Cc1c(C(C)OC(=O)c2cccc(C(F)(F)F)c2)sc2ncnn12 (stereo unspecified)	.	-0.025
NC(=O)C1CCN(c2ncnc3c2c(-c2ccccc2)cn3-c2ccc(Br)cc2)CC1	.	0.85
CCOC(=O)/C(C#N)=c1\s/c(=C\Nc2ccccc2)c(=O)n1CC	-1.1	.
SMILES	AID504770	CapD inh
O=C(O)c1cncc(Cl)c1	0.75	.
O=C(COc1ccc2c(c1)CCC2)NCCc1ccccn1	0.8	.
Cc1ccc(C(=O)/C=C2\N/C(=N\S(=O)(=O)c3ccc(N)cc3)NC2=O)cc1	0.15	4.8
O=C(Nc1ccc(-c2ccccc2)oc1=O)c1ccccc1	0.25	0.75
Cc1cccc(-n2nc(C)c3c2NC2=C(C(=O)CCC2)C3c2ccccn2)c1 (stereo unspecified)	-0.15	.
CCOC(=O)c1c(C)c(C(=O)NCc2ccc(OC)cc2)c(C)n1C	0.2	0.04
COc1ccccc1S(=O)(=O)N1CCNC(=O)C1	-0.35	.
CS(=O)(=O)c1ccccc1S(=O)(=O)N(C1CC1)C1CCN(Cc2ccccc2)CC1	.	-0.36
COc1ccc(C)cc1CCNCc1ccncc1	1.3	.
Cc1cc(C(=O)N(Cc2ccco2)Cc2cccs2)no1	-1.1	.
CCNC(=O)c1sc2ccccc2c1Cl	2.3	.
Cc1ccccc1C(=O)Nc1cccc(NC(=O)c2ccc(-c3ccc(Cl)cc3Cl)o2)c1	1.2	0.1
O=c1ccn(-c2ccc(-c3ccn[nH]3)cc2)cc1	-0.05	-0.27
COc1ccccc1/C=C1\N=C(c2ccc(OC)c(OC)c2)N(c2ccc(Cl)cc2)C1=O	.	-0.72
O=C(O)[C@H](Cc1ccccc1)N1Cc2ccccc2C1=O	-0.05	-0.24
CCOc1ccc(C/C(N)=N\n2cnnc2)cc1	-0.05	.
O=C(Cc1ccccc1)NNC(=S)Nc1ccccc1	0.05	.
CCOC(=O)c1ccc(N=c2oc3ccccc3cc2C(=O)Nc2ccccc2)cc1	.	0.12
CC12CC(c3ccccc3O1)C(/C(N)=N\NC(=O)c1ccc(F)cc1)C(=O)N2 (stereo unspecified)	0.8	0.04
O=c1c2c3c(sc2ncn1Cc1ccccc1Cl)CCCC3	.	0.55
CCn1c(C(=O)N2CCCC(C(=O)N3CCN(c4cccc(C)c4C)CC3)C2)cc2sccc21 (stereo unspecified)	-0.65	0.44
O=C1COCC(=O)N1CCc1c[nH]c2ccccc12	-0.75	-0.27
C=CCNc1sc2c(N)nc(N)nc2c1C#N	-0.35	-0.36
CC1(C)CC(=O)NC(=Nc2ccc(Br)cc2)C(=O)C1	0.2	-0.23
COC(=O)C(C)C[N+](C)(C)C (stereo unspecified)	.	0.33

Four structures already listed, ordered by count of non-hydrogen atoms, lowest first.
SMILES	AID504770	CapD inh
CCOc1ccc(C/C(N)=N\n2cnnc2)cc1	-0.05	.
CC1(C)CC(=O)NC(=Nc2ccc(Br)cc2)C(=O)C1	0.2	-0.23
Cc1cc(C(=O)N(Cc2ccco2)Cc2cccs2)no1	-1.1	.
CCn1c(C(=O)N2CCCC(C(=O)N3CCN(c4cccc(C)c4C)CC3)C2)cc2sccc21 (stereo unspecified)	-0.65	0.44

(continued)
SMILES	AID504770	CapD inh
CC1CCN(C(=O)c2cc3n(n2)C(C(F)(F)F)CC(c2ccco2)N3)CC1 (stereo unspecified)	-1.1	.
CCC12CN3CN(C1)CC(CC)(C3)C2O (stereo unspecified)	0.7	.
O=C(c1ccc(N2CCc3ccccc32)s1)N1CCCCCC1	-0.5	74
O=C(CN1CCc2sccc2C1c1cccs1)Nc1cc2[nH]c(=O)[nH]c2cc1Br (stereo unspecified)	0.55	.
COC(=O)c1ccccc1NC(=O)c1ccc(-c2ccccc2Cl)o1	-0.7	5.1
CS/C(=C(/C#N)S(=O)(=O)C(C)C)N1CCCC1	-0.45	-0.78
CSc1ccc(C2C(C(=O)N3CCCCC3)=C(C)NC3=C2C(=O)CCC3)cc1 (stereo unspecified)	-0.4	29
NC1=NC(=O)C(C(=O)NC2(C(F)(F)F)Oc3cc(Cl)c(Cl)cc3O2)S1 (stereo unspecified)	0.25	.
CCOC(=O)C1=C(C)C/C(=N\NC(=O)c2ccccc2O)CC1	1.8	.
COC(=O)C1(C)CCC(C(=O)O)C1(C)C (stereo unspecified)	.	-0.46
CC1=CCP(=O)(c2ccccc2)C1 (stereo unspecified)	1.4	.
CCN(Cc1nc(-c2ccc(OC)cc2)no1)C(=O)/C=C/c1ccc(OC)c(OC)c1	-0.35	.
CCOc1cccc(OCCOc2ccc(F)cc2)c1	-0.55	-0.12
O=C1C(=Cc2ccc(-c3ccccc3OC(F)(F)F)o2)C(=O)c2ccccc21	.	0.22
O=C(COC(=O)C1CC2CCCC(C1)C2=O)Nc1cccc2nsnc12 (stereo unspecified)	-0.75	.
O=C1CCCc2c1cc(-c1ccccc1)n2-c1ccc(Br)cc1	.	0.34
Cc1nnsc1-c1nnc(-c2ccc(C(F)(F)F)cc2)o1	1.6	0.52
O=C(NCCN1CCOCC1)c1nn2c(c1Cl)NC(c1ccc(Br)cc1)CC2C(F)(F)F (stereo unspecified)	.	0.77
Cc1nc2ccccc2c2c1C(=O)N(c1ccccc1)C2=O	-0.8	-0.61
NCc1ccc(C(=O)O)o1	0.75	.
O=C(NCCc1c[nH]c2ccc(O)cc12)OCC1CCCN(Cc2ccc3ccccc3c2)C1 (stereo unspecified)	.	0
O=C(CCCCCn1c(=S)[nH]c2ccc(Br)cc2c1=O)NCCCN1CCOCC1	.	-0.91
c1csc(C2NCc3c(sc4c3CCCC4)-n3cccc32)c1 (stereo unspecified)	0.25	-0.035
CCOC(=O)N1CCN(C(=O)CSCC(=O)N=c2sc3ccccc3n2C)CC1	-0.1	0.29

Pulled one by one from the entries so far, 3 records:
SMILES	AID504770	CapD inh
CSc1ccc(C2C(C(=O)N3CCCCC3)=C(C)NC3=C2C(=O)CCC3)cc1 (stereo unspecified)	-0.4	29
O=C(NCCc1c[nH]c2ccc(O)cc12)OCC1CCCN(Cc2ccc3ccccc3c2)C1 (stereo unspecified)	.	0
O=C(COC(=O)C1CC2CCCC(C1)C2=O)Nc1cccc2nsnc12 (stereo unspecified)	-0.75	.

Screening results as filed in PubChem BioAssay.
